VDR inh = vitamin D3 receptor (human) inhibition; P11473; VDR-SRC2-3 peptide fluorescence polarization, 2 h; Potency, µM, without a hit: max response, negative = inhibition, usual class: inhibitors; hit rate 0.93% among 400,000; active = well fitted inhibition curve with a large enough effect; inconclusive = small, poorly fitted or top-dose-only effect, or another doubt; inactive = no such curve, though single readings can be large or run the other way; also: series mostly up to about 120 µM
Target sequence (P11473 whole entry, looked up): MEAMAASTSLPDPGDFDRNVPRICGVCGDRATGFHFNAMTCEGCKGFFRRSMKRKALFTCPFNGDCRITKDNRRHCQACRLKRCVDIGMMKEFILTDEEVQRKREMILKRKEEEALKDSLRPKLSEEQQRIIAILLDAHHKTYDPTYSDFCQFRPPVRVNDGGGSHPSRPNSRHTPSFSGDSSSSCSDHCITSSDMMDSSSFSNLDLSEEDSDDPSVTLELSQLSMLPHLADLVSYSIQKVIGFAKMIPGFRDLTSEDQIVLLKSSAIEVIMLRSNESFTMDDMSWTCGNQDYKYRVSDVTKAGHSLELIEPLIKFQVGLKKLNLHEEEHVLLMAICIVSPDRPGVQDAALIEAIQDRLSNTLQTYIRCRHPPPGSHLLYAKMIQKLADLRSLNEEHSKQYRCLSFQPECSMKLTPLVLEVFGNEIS
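Reagent solutions, kept cold and dark, are dispensed first; compounds are then pinned in at 23 nl, plates briefly spun, and incubated 2 h at ambient temperature. Inhibition of VDR–SRC2-3 peptide binding is read by fluorescence polarization.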
Starred values were filed as active, the others as inactive; ? = inconclusive; & = joins results of further samples. % is scaled to controls: 0 for no effect and ±100 for the full control effect; potency is read from the fitted curve at half-maximal effect. Not all compounds are listed. The share of hits here may be higher or lower than overall.

Molecule | VDR inh
CC(C)[C@H]1COCCS(=O)(=O)N1Cc1ccc(Cl)cc1 | 9%
COc1ccc(C(=O)Nc2cc(-c3cccc(C)c3)nn2-c2ccccc2)cc1 | 10%
CC(C)[C@H](N)C(=O)N[C@@H](CCC(N)=O)C(=O)NCC(=O)N[C@@H](CCC(=O)O)C(=O)N[C@@H](CCC(=O)O)C(=O)N[C@@H](CO)C(=O)N[C@@H](CC(N)=O)C(=O)N[C@@H](CC(=O)O)C(=O)N[C@@H](CCCCN)C(=O)O | 3%
CCN(CC)CCCn1c(=S)[nH]c2cc(C(=O)OC)ccc2c1=O | 17%
O=C(Cc1cccs1)Nc1ccc(Cl)c(S(=O)(=O)N2CCOCC2)c1 | -4%
Cc1ccc(C2NC(=NCc3ccccc3)Nc3nc(C)cc(=O)n32)cc1 (configuration not stated) | -25%
Cc1sc(NC(=O)CN(Cc2ccccc2)C(=O)C(C)C)c(C(N)=O)c1C | -16%
CCN(CC(=O)Nc1ccc(OC)cc1)C(=O)c1ccc(Cl)c(S(=O)(=O)N2CCCC2)c1 | 6%
CN(Cc1ccccc1)Cc1c(O)ccc2c(=O)c(-c3ccccc3)c(C(F)(F)F)oc12 | -14%
Clc1ccc(-n2nnnc2-c2cnc(-c3ccccn3)nc2-c2cccs2)cc1 | -3%
Cc1ccc(C)c(CN2CCCN(Cc3cc(C)ccc3C)S2(=O)=O)c1 | -3%&-1%
CN(C)Cc1c(C(=O)N/N=C/C2CC=CCC2)nnn1-c1nonc1N (configuration not stated) | 11%

(more compounds)
Molecule | VDR inh
CC(C)=CCc1c(O)cc(O)c2c1OC(c1ccc(O)cc1)CC2=O (configuration not stated) | -5%
COc1ccc(/C=N/NS(=O)(=O)c2ccc(NC(C)=O)cc2)cc1 | 7%
COC(=O)/C(C(C)=O)=C(\C=C\N(C)C)N(C)C | -8%
C/C(O)=C/c1nc2ccccc2[nH]c1=O | -1%
COc1ccc(C(=O)NN/C(C)=C/C(=O)C(F)(F)C(F)(F)C(F)(F)F)cc1 | -4%
COc1cccc(/C=N/Nc2ccc([N+](=O)[O-])cc2)c1O | -11%
COc1ccnc(-n2cccc2C=O)c1C#N | -6%
CCc1ccc(C2=NN(CCC(=O)NCCc3ccccc3)C(=O)CC2)cc1 | 14%
Cc1ccccc1C(=O)NC1CCN(C(=O)NCc2ccccc2)CC1 | ?
CCCS(=O)(=O)N1CC(=O)N(c2ccc(C)cc2C)C(C)(C(=O)NC2CCCCCC2)C1 (configuration not stated) | 19%
CCN(C(=O)CSc1nnnn1C)C1CCS(=O)(=O)C1 (configuration not stated) | 2%
O=C(Cn1cnc2c(nnn2-c2ccc(F)cc2)c1=O)NCC1CCCO1 (configuration not stated) | 5%

Continued.
Molecule | VDR inh
Cc1ccccc1C(=O)c1cccn1CC(=O)NC(C)c1ccccc1 (configuration not stated) | -1%
Cc1ccc(S(=O)(=O)NNC(=O)C2COc3ccccc3O2)cc1C (configuration not stated) | -13%
CCOc1ncccc1C(=O)NCc1ccccc1Cl | 7%
O=C(COC(=O)c1cccc(C(=O)OCC(=O)NC2CC2)n1)NC1CC1 | 1%
CN(C)Cc1cc(C(C)(C)C)cc(N2CCOCC2)c1O | 6%
COc1ccc(Cl)cc1N(CC(=O)N1CCN(Cc2ccccc2)CC1)S(C)(=O)=O | -27%
Cc1ccc(C(=O)CCC(=O)OCC(=O)Nc2c(C)nn(-c3ccccc3)c2C)cc1 | -18%
CC(C)(CNC(=O)C1CCCC1)CNC(=O)C1CCCC1 | 3%
Cc1cc([N+](=O)[O-])nn1CC(=O)Nc1cccc2nonc12 | -1%
CCN1C(=O)N[C@@H](c2ccc(Br)cc2)C(C(C)=O)=C1C | -1%
Cc1cccc(N2CCN(S(=O)(=O)c3c(C(=O)N4CCC(C)CC4)c(C)n(C)c3C)CC2)c1C | 3%
Nc1c(C(=O)CSc2nnc(N3CCOCC3)n2-c2cccc(F)c2)c(=O)[nH]c(=O)n1C1CC1 | -8%

Next results follow.
Molecule | VDR inh
Cn1ccc(C(=O)Nc2ccc(Br)cc2Br)n1 | -12%
COC(=O)CCCC1=CC2=C(c3ccccc3)C(=O)C(C)(OC(=O)C3CCCC3)C(=O)C2=CN1CCc1ccccn1 (configuration not stated) | -6%
CCOC(=O)c1c(NC(=O)C2=C(C)NC(=S)NC2c2ccccc2C(F)(F)F)sc(C)c1C (configuration not stated) | -20%
COCc1nnc(NC(=O)c2ccc(S(=O)(=O)N(CC(C)C)CC(C)C)cc2)o1 | -14%
Cc1onc(-c2ccccc2)c1C(=O)N1CCN(C(=O)c2ccco2)CC1 | -10%
Cc1ccc(CN2CCC(CNS(=O)(=O)c3ccc(-c4ccc(=O)[nH]n4)s3)CC2)cc1 | ?
COc1ccc(S(=O)(=O)N2CCC(C(=O)NCc3cccc(OC)c3)CC2)cc1 | -2%
CCOn1c(=O)c(-c2ccc(Cl)cc2)[n+]([O-])c2ccccc21 | ?
CC(C)(C)NC(=O)/C(=C\C=C\c1ccccc1)NC(=O)c1ccc([N+](=O)[O-])cc1 | 4%
CCOc1ccccc1OCCCNCc1ccccc1 | ?
COC(=O)c1ccccc1NC(=O)CN(c1cc(OC)ccc1OC)S(C)(=O)=O | 7%
C#CCOCCOCCOCCNc1nc(N2CCN(C(=O)Cn3cc(CCO)nn3)CC2)nc(N2CCN(C(=O)Cn3cc(CCO)nn3)CC2)n1 | ?

Further records
Molecule | VDR inh
Cc1cccc(CSCc2nnc(N)s2)c1 | -3%
CCN(CC)S(=O)(=O)c1cc(C)c(C)cc1Br | 7%
COC(=O)c1nnn(-c2ccc(Br)cc2)c1C(=O)OC | -7%
COc1ccc(C(C)(C)NC(=O)C2CCC(=O)N(C3CCCC3)C2)cc1OC (configuration not stated) | -1%
C/C(=N\O)c1sc(-c2ccccc2)nc1C | -6%
O=S(=O)(c1cccs1)N1CCN(CCc2ccccc2)CC1 | -16%
COc1ccc(N2C(=O)CC(Sc3nc4ccccc4s3)C2=O)cc1 (configuration not stated) | 6%
Cc1cc(C(=O)CCl)c(C)n1CC1COc2ccccc2O1 (configuration not stated) | 89µM*
O=C(Nc1nc2n(n1)C(c1ccccc1)C=C(c1ccccc1)N2)c1ccc(Cl)c([N+](=O)[O-])c1 (configuration not stated) | 16%
COCCNC(=O)c1ccc2c(Cl)c3c(nc2c1)CCC3 | 10%
CN(C1CCCCC1)S(=O)(=O)c1ccc2c(c1)c(=O)c(C(=O)N1CCN(c3ccccc3F)CC1)cn2C | 3%
CN(C)c1ccc(/C=C/c2ccncc2)cc1 | -14%

(further entries)
Molecule | VDR inh
O=C(CSc1ncn(-c2ccccc2)n1)Nc1nc2c(s1)CCCC2 | 4%
O=C(Nc1cccc(N2C(=O)C3C4C=CC(C4)C3C2=O)c1)c1cccs1 (configuration not stated) | -19%
O=C(C[n+]1ccc(/C=N/O)cc1)N(Cc1ccccc1)Cc1ccccc1 | -11%
CC1CCCN(S(=O)(=O)CCNC(=O)c2ccc3c(c2)OCO3)C1 (configuration not stated) | 6%
O=C(NCC(=O)N(CCc1ccccc1)C(C(=O)NC1CCCC1)c1cccnc1)c1ccco1 (configuration not stated) | -21%
COc1ccccc1Cc1nnnn1CC(=O)O | -15%
Cc1cc(C(=O)CSc2ccc(F)cc2)cc(C)c1O | ?
Cc1ccc(-n2ncc3c2CC(C)(C)CC3NC(=O)CCN2CCCCC2=O)cc1 (configuration not stated) | 0%
CC1=CC2=NC(=O)/C(=C/c3cccn3Cc3ccccc3)C(=N)N2O1 | 4%
O=C(O)C1CC1C(=O)N1CCN(c2ccc(Cl)c(Cl)c2)CC1 (configuration not stated) | -13%
Cc1ccc(S(=O)(=O)Nc2cc3c(C(=O)Nc4ccccc4)c(C)oc3c3ccccc23)cc1 | -9%
O=C1CC(c2ccc(Cl)cc2)c2c(O)cc(O)cc2O1 (configuration not stated) | 1%

(continued)
Molecule | VDR inh
C#CCOCCOCCOCCNc1nc(N2CCN(C(=O)[C@H]([C@@H](C)CC)n3cc([C@@H](N)CO)nn3)CC2)nc(N2CCN(C(=O)[C@H](CCCCN)n3cc([C@@H](N)C(C)CC)nn3)CC2)n1 (some centres not stated) | -21%
CCN(CC)CCN(C(=O)CN1C(=O)c2ccccc2C1=O)c1nc2cc3c(cc2s1)OCO3 | 5%
CCOc1ccc(CCNC(=O)COC(=O)c2cc([N+](=O)[O-])ccc2N2CCOCC2)cc1OCC | -5%
COc1ccc(C)cc1NC(=O)N1CCC(CO)(CC2CCCCO2)CC1 (configuration not stated) | -8%
O=C(NNC(=S)NCC1CCCO1)c1cc(Br)ccc1Cl (configuration not stated) | 1%
Cc1cc(C(=O)N/N=C/c2ccc(OC(=O)c3ccccc3Br)cc2)n[nH]1 | -8%
COc1ccc(CC(=O)n2[nH]c(=O)ccc2=O)cc1OC | 45µM*
COC(=O)c1ccc(COC(=O)CCC(=O)c2cccs2)cc1 | -10%
O=C(NCCc1ccccc1)c1c[nH]c2ccc(S(=O)(=O)Nc3ccccc3F)cc2c1=O | 7%
CC(C)(CNC(=O)/C=C/c1ccc(F)cc1)CNC(=O)/C=C/c1ccc(F)cc1 | -14%
COc1cccc(OC)c1C(=O)NC(=S)NCc1cccnc1 | 1%
O=C(NCc1ccc(Cl)cc1)C1CCN(C(=O)Cc2ccccc2)CC1 | 2%

Continued.
Molecule | VDR inh
O=C(CC1N=C(Cc2ccccc2)NNC1=O)N/N=C/c1ccc([N+](=O)[O-])cc1 (configuration not stated) | -1%
Cc1cccc(Nc2c(-c3cccs3)nc3nc(C)cc(C)n23)c1 | -2%
Cc1c(NC(=O)Nc2ccc(Cl)c(Cl)c2)sc2nc3n(c(=O)c12)CCC(C)CC3 (configuration not stated) | -1%
CCOc1ccc(-n2nc(CO)c(C(=O)NCc3cccnc3)n2)cc1 | 11%
O=C(CBr)Nc1c2c(nn1-c1ccccc1)CSC2 | -23%
CCN(c1ccccc1)S(=O)(=O)c1cccc(C(=O)NCc2ccccc2CN2CCOCC2)c1 | -6%
CC(C)CC(=O)c1c[nH]c(C(=O)O)c1 | -3%
CN(C)c1cc[n+](CC(=O)c2ccc(-c3ccccc3)cc2)cc1 | -5%
Oc1ccc(Nc2nc(-c3ccc(Cl)cc3)nc3ccccc23)cc1 | 0%
CCCCOc1ccc(C(=O)OCC(=O)Nc2cc(C)on2)cc1 | 5%
COc1ccc(CN2CCC(=O)N([C@H](CO)Cc3ccccc3)CC2)cc1 | 3%
O=C(O)c1ccccc1NN=Cc1ccccc1 | 15%

(next part)
Molecule | VDR inh
COc1ccc(S(=O)(=O)N2CCCC(C(F)(F)F)C2)cc1 (configuration not stated) | -13%
O=[N+]([O-])c1ccc2ncnc(N3CCN(Cc4ccc5c(c4)OCO5)CC3)c2c1 | -27%
O=C(NNS(=O)(=O)c1ccc(Cl)cc1)c1sccc1-n1cccc1 | 0%
CCCC(=O)OCC1CN(Cc2ccco2)S(=O)(=O)c2c(F)cccc2O1 (configuration not stated) | -19%
CCOc1ccc(-n2c(SCC(=O)Nc3ccc4c(c3)OCCO4)nc3c(c2=O)SCC3)cc1 | 0%
Cc1cccc(C(=O)Nc2cccc(OCc3cc(=O)n4ccccc4n3)c2)c1 | 13%
COc1ccc(C(=O)Nc2ccc(N3CCOCC3)cc2)cc1S(=O)(=O)N1CCCC1 | 6%
Cc1ccccc1C(=O)Nc1ccc(OCc2cc(=O)n3cccc(C)c3n2)cc1 | 2%
O=C(c1cnccn1)N(Cc1cccs1)C1(C(=O)NC2CCCC2)CCCCC1 | 7%
O=c1[nH]c(CN2CCN(c3ccc(O)cc3)CC2)nc2scc(-c3ccc(Cl)cc3)c12 | -9%
CCc1cc(C(=O)OC)c(NC(=O)c2ccoc2C)s1 | -17%
CCCC(=O)Nc1nnc(-c2ccccc2)o1 | -13%

Next section:
Molecule | VDR inh
NNC(=O)c1ccc(COc2ccc3ccccc3c2)cc1 | -17%
Cc1nc(Nc2ccc(F)cc2)nc(Nc2ccc(F)cc2)c1[N+](=O)[O-] | 16%
CCCCN(C)C(=O)Cn1cnc2sc(C)cc2c1=O | 7%
COc1ccc(Cc2nnc(Nc3ccccc3)s2)cc1Br | 1%
O=[N+]([O-])c1cc(S(=O)(=O)Nc2ccccc2)ccc1Nc1ccccc1 | -17%
CC(=O)Nc1cc(NC(C)=O)cc(C(=O)N2CCCC3CCCCC32)c1 (configuration not stated) | -3%
COc1ccc(OCC(=O)Nc2ccc3c(c2)nc(CCN2CCCC2)n3C)cc1 | 3%
Cc1cccc(NS(=O)(=O)c2ccc(C)c(C(=O)NCCCN3CCOCC3)c2)c1 | -13%
COc1cc(C(C(=O)NC2CCCCC2)N(Cc2ccco2)C(=O)c2cnccn2)cc(OC)c1OC (configuration not stated) | -4%
COc1ccc(NC(=S)Nc2cccc(Cl)c2)cc1OC | 7%
O=C(Cc1ccccc1)Nc1cc(-c2nc3cc(Cl)ccc3o2)ccc1Cl | -3%
COc1cc2c(cc1NC(=O)CSc1ccccc1)oc1ccccc12 | -14%
CC(C)CNS(=O)(=O)c1ccc(CCC(=O)N2CCN(Cc3ccc4c(c3)OCO4)CC2)cc1 | 5%

Part of the list above in order of molar mass, high to low.
Molecule | VDR inh
O=C(Cc1ccccc1)Nc1cc(-c2nc3cc(Cl)ccc3o2)ccc1Cl | -3%
COc1ccc(Cc2nnc(Nc3ccccc3)s2)cc1Br | 1%
O=[N+]([O-])c1cc(S(=O)(=O)Nc2ccccc2)ccc1Nc1ccccc1 | -17%
COc1cc2c(cc1NC(=O)CSc1ccccc1)oc1ccccc12 | -14%
CC(=O)Nc1cc(NC(C)=O)cc(C(=O)N2CCCC3CCCCC32)c1 (configuration not stated) | -3%

High-throughput results: PubChem BioAssay, National Center for Advancing Translational Sciences (NCATS)
